Assay outcomes from PubChem BioAssay.
RecA splice inh = Mtb RecA intein splicing inhibition. inhibition, %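 (about 9 µM by stock and volumes)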. 290,000 compounds, 0.75% hits. P9WHJ3. cell-free RecA intein splicing, fluorescence; in the data active = inhibition above about 30%; inconclusive = no clear call, values can overlap the other calls;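 also: 0% = vehicle wells and 100% = reference inhibitor control wells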
Target sequence (P9WHJ3 whole entry, looked up, canonical isoform): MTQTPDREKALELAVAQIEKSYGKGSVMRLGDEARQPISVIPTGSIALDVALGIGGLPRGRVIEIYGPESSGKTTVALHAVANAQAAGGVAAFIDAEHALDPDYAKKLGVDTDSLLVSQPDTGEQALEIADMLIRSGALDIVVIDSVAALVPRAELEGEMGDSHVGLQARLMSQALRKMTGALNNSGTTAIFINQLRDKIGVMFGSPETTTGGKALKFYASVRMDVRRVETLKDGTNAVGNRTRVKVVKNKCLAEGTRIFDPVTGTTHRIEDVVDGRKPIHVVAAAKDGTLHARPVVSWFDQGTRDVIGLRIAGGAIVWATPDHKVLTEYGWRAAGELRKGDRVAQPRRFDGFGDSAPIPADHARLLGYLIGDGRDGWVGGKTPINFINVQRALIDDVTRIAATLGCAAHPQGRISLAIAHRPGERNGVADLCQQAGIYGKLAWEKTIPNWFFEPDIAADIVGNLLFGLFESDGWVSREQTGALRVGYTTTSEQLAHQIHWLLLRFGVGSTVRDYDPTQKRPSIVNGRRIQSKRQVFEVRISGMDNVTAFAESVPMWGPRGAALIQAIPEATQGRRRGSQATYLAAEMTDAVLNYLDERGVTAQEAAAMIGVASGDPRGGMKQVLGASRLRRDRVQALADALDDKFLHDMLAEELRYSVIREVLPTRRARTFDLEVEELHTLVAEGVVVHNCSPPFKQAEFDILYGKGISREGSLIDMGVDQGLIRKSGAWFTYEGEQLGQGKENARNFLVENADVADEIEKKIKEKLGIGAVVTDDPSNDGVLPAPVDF
Mtb growth = M. tuberculosis H37Rv growth inhibitors, H37Rv strain (AID 1626) | M. tuberculosis H37Rv growth inhibition; higher % means a stronger effect | one-dose inhibition, % at 10 µM; IC50 in µM for titrated hits | 220,000 compounds, 0.95% hits;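 active = confirmed in a dose series; inconclusive = inhibition above 80% but not taken into the dose series; inactive = below 80% or under 30% at every dose of the series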;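 also: bacteria incubated seven days before Alamar blue readout; 0% = bacteria only wells and 100% = bacteria with antibiotic wells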
Mtb bLac sens = beta-lactam sensitization of Mtb H37Rv. 330,000 compounds, 0.27% hits. AID 434955. inhibition, % at 25 µM. M. tuberculosis H37Rv growth with meropenem, percent inhibition; hits of this screen are not shown here;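 active = about 74% or more and at least 40 points above the plate without the antibiotic, then above 30% in a dose series; inconclusive = first-round hits that could not be retested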;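 also: growth measured after seven days incubation then overnight dye step; 0% = bacteria only wells and 100% = bacteria with antibiotic; twin plates without the antibiotic show which effects depend on it; some results filed as inactive read as strong as hits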
YopH PTP inh = YopH (Yersinia) phosphatase inhibition. 140,000 compounds, 0.16% hits. inhibition, %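 (about 10 µM by stock and volumes)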. fluorescence Ex485/Em525;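 active = inhibition of 50% or more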;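 also: controls were vehicle for no effect and minimum signal wells for full effect; inactives centre near -20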
Arbovirus inh = arbovirus infection inhibition | 200,000 compounds, 0.37% hits | arbovirus infection cell-based antiviral screen | inhibition, % at 10 µM;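 active = inhibition from about 30%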;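 also: bluetongue infection of BSR cells; cell survival read as ATP light after 72 h; 0% = infected wells without compound and 100% = uninfected wells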
Arbovirus inh repeat = also measured in Arbovirus inh; calls as there; inhibition, %; measured here: 10K subset replicate screen; many hits read low in the repeat;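 first of two repeat runs on a subset; 0% = infected and 100% = uninfected wells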
Starred values were filed as active, the others as inactive; ? = inconclusive; · = not tested or not shown. The list is partial; count on the stated rates, not on these rows.

SMILES	RecA splice inh	Mtb growth	Mtb bLac sens	YopH PTP inh	Arbovirus inh	others
O=C(NCCN1CCN(Cc2ccccc2)CC1)C1CC(=O)N(C2CCCC2)C1 (configuration not stated)	-2.3	-11%	3	-11	-3
Cc1cc(N2CCN(c3ccc(F)cc3)CC2)nc2cc(O)ccc12	-31	16%	-7	-31	-40
CCOc1ccc(S(=O)(=O)N(CC(=O)O)c2ccccc2)cc1	1.1	-6%	-13	6	2	Arbovirus inh repeat=0
O=C(NC1CCCCC1)C1CCCN(S(=O)(=O)c2cccc3cccnc23)C1 (configuration not stated)	-1.9	-5%	-11	·	·
O=C1/C(=C/c2ccccc2Cl)N2CCC1CC2	-1.0	7%	2	·	·
CC(=O)NC1CC2CCCC(C1)N2CC(=O)Nc1ccccc1 (configuration not stated)	-0.6	-3%	?	-43	9
CCCn1c(C2CCCN2c2nc(-c3ccc(C)cc3)cs2)nc2ccccc21 (configuration not stated)	-2.3	·	27	·	·
N#Cc1ccc(N2CCCC2C(=O)O)c([N+](=O)[O-])c1 (configuration not stated)	-3.5	-2%	-7	-26	11
CCOC(=O)C(C(=O)OCC)C(C)(C)/C(C)=N\Nc1ccc([N+](=O)[O-])cc1[N+](=O)[O-]	2.9	-5%	-2	-25	9
O=C(NCCCNC(=O)NC1CCCCC1)NC1CCCCC1	2.0	-20%	?	6	·
Cc1cc(C(=O)O)c(C)n1Cc1ccncc1	-0.4	9%	-4	·	·
CCCOc1ccc(Cn2ccnc2)cc1[N+](=O)[O-]	-6.3	-4%	2	-14	-6
CC1=C(/C=C/C(C)=C/C=C/C(C)=C/C(=O)O)C(C)(C)CCC1	-0.1	-5%	3	-39	16
Cc1c(C(=O)Nc2cc(S(=O)(=O)N3CCOCC3)ccc2N2CCOCC2)oc2ccccc12	2.7	7%	-2	·	-7
CC(C)CN(C(=O)C1CC1)c1c(N)n(Cc2ccccc2)c(=O)[nH]c1=O	1.6	·	-4	·	·
Cc1ccsc1C(=O)N1CC=C(c2ccccc2)CC1	3.8	·	-9	·	·
COc1cccc(/C=N/Nc2ccc(Cl)nn2)c1OC	-2.0	·	-11	·	·
COc1ccc(-c2cccc(NS(=O)(=O)c3cc([N+](=O)[O-])ccc3Cl)c2)nn1	-0.9	·	-11	·	·
COc1ccc(S(=O)(=O)N2CCCCCC2)cc1N(C)S(=O)(=O)c1ccc(C)cc1	2.7	-1%	-3	-30	16
COc1ccc(C(=O)COc2ccc(NC(C)=O)cc2)cc1	0.1	6%	9	-37	2
COc1ccc(OC)c(Nc2nc(C3CC3)nc3c2nnn3Cc2ccccc2)c1	1.3	·	-1	-161	-11
O=C(Nc1ccccc1)O/N=C(\c1ccccc1)c1ccccn1	-1.0	5%	-4	-30	-4
Cc1cc(NC(=O)CCSc2ccccc2)no1	-1.0	2%	-9	·	0
O=C(OCCCC(=O)N1CCOCC1)c1ccccc1	-1.3	-2%	-1	-41	4
Cc1ccc(S(=O)(=O)CCc2nnc(NC(=O)c3ccccn3)s2)cc1	-0.6	82%	88	-43	-18
CC(C)CC(C(=O)O)N1C(=O)C2C3C=CC(C2C1=O)C1C(=O)N(C(CC(C)C)C(=O)O)C(=O)C31 (configuration not stated)	0.5	·	-2	·	·
S=C(NCCc1ccccc1)NC1CC2CCC(C1)N2Cc1ccccc1 (configuration not stated)	1.8	1%	-2	·	-13
Clc1ccc(-c2nnc(-c3ccccc3Cl)o2)cc1	0.9	12%	54	-50	4
CC(C(N)=O)N1CC(c2ccccc2)CC1=O (configuration not stated)	·	-8%	-12	-23	-2
Cn1c(Cc2nc(-c3cnccn3)no2)nnc1SCC(=O)Nc1ccccc1	0.0	0%	-9	·	·
CN1CCN(C(=O)c2cnn3c(C(F)(F)F)cc(-c4cccs4)nc23)CC1	-13	-4%	2	-33	-1
CC1Cc2ccccc2N1C(=O)c1cc2sccc2n1Cc1ccccc1 (configuration not stated)	11	10%	-3	22	-11
CCOCCCNC(=O)C(c1ccc(C)cc1)N(Cc1ccc2c(c1)OCO2)C(=O)CNC(C)=O (configuration not stated)	-0.3	15%	-3	7	4	Arbovirus inh repeat=5
CCOC(=O)C(CC)(CCC(=O)O)c1csc(Nc2ccc(C)cc2)n1 (configuration not stated)	10	-7%	2	·	5
Cc1cccc(C(=O)Nc2ncc(CN3CCOCC3)s2)c1	-0.5	-3%	3	-5	3
Cc1ccc(NC(=S)NCCc2ccccc2)c(C)c1	5.7	7%	-6	-15	9
CN(C)C=Nc1nonc1-c1ncn[nH]1	-6.3	9%	15	-18	12
CC(C)c1ccc(N(CC(=O)NC2CCCCC2)C(=O)CCC(=O)Nc2ccccn2)cc1	-1.2	·	4	·	·
CN1CC(C(=O)c2ccccc2)C(c2ccccc2)C1 (configuration not stated)	0.7	·	-12	·	·
COc1ccc(S(=O)(=O)N(CCc2ccccc2)CC(=O)O)cc1OC	-1.2	-7%	-1	-36	8	Arbovirus inh repeat=0
Cc1ccc(S(=O)(=O)Nc2nc3ccccc3nc2NCc2ccco2)cc1	-6.4	-12%	2	-54	4
Cc1ccc(C(=O)NCC(=O)OC(C)C(=O)Nc2ccc(N(C)C)cc2)s1 (configuration not stated)	-3.5	-7%	1	·	-3
COC(=O)CSc1nnc(-c2ccccc2O)n1-c1ccc(C)cc1	5.0	22%	?	-35	-4
Cc1[nH]c2ccccc2c1/C=N/NC(=O)C1CC1(c1ccccc1)c1ccccc1 (configuration not stated)	-3.3	10%	10	-26	-35
CCOc1ccc(/C=C2\SC(=S)N(CCC(=O)N(CCO)c3ccccc3)C2=O)cc1	13	·	-2	·	·
O=C1CC(c2ccccc2)n2nc(NC(=O)c3cccnc3)nc2N1 (configuration not stated)	0.7	-5%	·	-2	1
Cc1cc(-c2cc(-c3ccc(Cl)cc3)on2)nc(NCC2CC2)n1	-0.4	-9%	-7	·	·
O=C(Nc1ccc(-n2ccc(C(F)(F)F)n2)cc1)Nc1cccc(Cl)c1	2.7	9%	-2	·	·
COc1ccc(OCc2nc(N)nc(Nc3cccc(C)c3C)n2)cc1	-2.0	-1%	2	-54	3
Cn1c(N)c(C(=O)Nc2ccc(-c3ccccc3)cc2)sc1=S	-3.5	12%	-4	·	·
CC1CCN(c2ccc(-c3cccc(NC(=O)C(F)(F)F)c3)nn2)CC1	-2.5	·	?	·	·
CN(CC(=O)Nc1ccc(F)c(F)c1F)C(=O)CCc1nc2sc3c(c2c(=O)[nH]1)CCCC3	-1.4	·	-9	·	·
Cc1ccccc1-c1nc(-c2cccnc2)no1	·	2%	-3	6	13
CCCOc1ccc(N2C(=O)CC(N3CCC(C(=O)OCC)CC3)C2=O)cc1 (configuration not stated)	-1.0	-4%	4	-17	-3
O=C1NC(CCc2ccccc2)C(=O)N1Cc1ccccc1Cl (configuration not stated)	-1.0	8%	3	-22	-4
CCN(CC)CCN(C(=O)c1ccc2c(c1)CCCC2)c1nc2ccc(C)cc2s1	22	·	-6	·	·
FC(F)(F)C1CC(c2cccs2)Nc2ncnn21 (configuration not stated)	-1.9	3%	-5	-39	3
COC(=O)c1cnc(SC)nc1C	0.1	2%	6	2	4
CN1CCN(C(=O)c2ccc(Cl)c(S(=O)(=O)N3CCCCCC3)c2)CC1	-3.1	1%	3	·	10
CCCc1oc2c(c(=O)c1CC)C(=O)CC(C)(C)C2	·	1%	-23	-3	-4
The listing continues:
SMILES	RecA splice inh	Mtb growth	Mtb bLac sens	YopH PTP inh	Arbovirus inh	others
COc1cc(NC(=O)CCCNC(=O)Cn2cnc3sc(C)c(C)c3c2=O)cc(OC)c1OC	1.3	·	-4	·	·
O=C(COc1ccc2c(-c3ccccc3)cc(=O)oc2c1)NCCN1CCOCC1	0.7	·	11	·	·
COc1cccc(CC(NC(C)=O)C(=O)NC2CCN(S(=O)(=O)c3ccc(F)cc3)CC2)c1OC (configuration not stated)	-3.6	-6%	-3	·	2
O=C(CCN1C(=O)/C(=C/c2ccccc2Cl)SC1=S)Nc1ccccc1C(=O)O	28	·	6	·	·
O=C1NC(=Nc2ccc(Cl)cc2)SC1Cc1cc(Cl)ccc1Cl (configuration not stated)	4.3	·	-3	-16	-1
CCOC(=O)C(=O)Nc1cc([N+](=O)[O-])ccc1C	0.2	0%	1	-48	1
CCOc1cc(C2C3=C(CC(C)(C)CC3=O)N(CCOC)C3=C2C(=O)CC(C)(C)C3)ccc1OC	-0.5	·	2	·	·
CCC(C)NC(=O)CN(C)S(=O)(=O)c1ccc2c(c1)c(=O)n(C)c(=O)n2C (configuration not stated)	-2.1	-1%	-4	-18	9
CCCCC(O)(CCCC)C(=O)NN(C(=O)c1cccnc1Cl)c1ccccc1	1.6	-1%	1	·	·
Cc1cccc2c1cnn2C(=O)Nc1ccccc1Cl	0.0	·	-5	·	·
Cc1c(NS(=O)(=O)c2ccc(NC(=O)CCC(=O)O)cc2)c(=O)n(-c2ccccc2)n1C	0.4	·	-4	·	·
O=C(COc1c(CO)cc(Br)cc1CO)NC1CCCc2ccccc21 (configuration not stated)	-1.8	-3%	-3	·	3
Cc1cccc(N2CCN(C(=O)CSc3nc4ccccc4nc3N3CC(C)OC(C)C3)CC2)c1C (configuration not stated)	3.0	·	15	·	·
COc1cccc(C2c3c(C)nn(-c4ccc([N+](=O)[O-])cc4)c3N=C3C(=O)Nc4ccccc4N32)c1 (configuration not stated)	-2.4	73%	67	·	-6
Cc1ccc(C)c2c1[nH]c1ccccc12	3.1	-8%	13	-3	-7

Six records drawn at random from those above:
SMILES	RecA splice inh	Mtb growth	Mtb bLac sens	YopH PTP inh	Arbovirus inh	others
O=C(CCN1C(=O)/C(=C/c2ccccc2Cl)SC1=S)Nc1ccccc1C(=O)O	28	·	6	·	·
O=C1NC(=Nc2ccc(Cl)cc2)SC1Cc1cc(Cl)ccc1Cl (configuration not stated)	4.3	·	-3	-16	-1
CCOC(=O)C(=O)Nc1cc([N+](=O)[O-])ccc1C	0.2	0%	1	-48	1
COc1cccc(C2c3c(C)nn(-c4ccc([N+](=O)[O-])cc4)c3N=C3C(=O)Nc4ccccc4N32)c1 (configuration not stated)	-2.4	73%	67	·	-6
COc1cccc(CC(NC(C)=O)C(=O)NC2CCN(S(=O)(=O)c3ccc(F)cc3)CC2)c1OC (configuration not stated)	-3.6	-6%	-3	·	2
Cc1cccc2c1cnn2C(=O)Nc1ccccc1Cl	0.0	·	-5	·	·

More results follow:
SMILES	RecA splice inh	Mtb growth	Mtb bLac sens	YopH PTP inh	Arbovirus inh	others
C(=N\Nc1ccc2ccccc2n1)/c1ccc2c(c1)OCCO2	-3.0	4%	98	·	5
CCOC(=O)/C=C/C(=O)OCC(=O)Nc1cccc(Cl)c1Cl	-4.9	4%	4	·	7
CCC(C(=O)NC1CCCC1)N(Cc1ccco1)C(=O)Cn1nnc(-c2ccc(C)cc2)n1 (configuration not stated)	1.9	-1%	-2	12	9
Cc1ccc(SC(CC(=O)c2ccc(F)cc2)C(=O)O)cc1 (configuration not stated)	1.3	·	5	·	·
O=C(Cn1cccc1C(=O)c1ccccc1)NCc1ccco1	-2.3	2%	-4	-41	-1
COCCOC(=O)C(C#N)c1nc2ccccc2nc1N1CCCC1 (configuration not stated)	-5.9	29%	86	-4	9
Cc1ccc(C(=O)O)cc1NS(=O)(=O)c1ccc2c(c1)oc(=O)n2C	-0.3	·	1	·	·
COc1cccc(NC(=O)COc2cc(C)cc3oc(=O)cc(C)c23)c1	-3.1	·	4	·	·
Cc1cc(C(=O)NC2CCCCC2)c2cc(F)ccc2n1	-0.3	1%	4	·	8
O=C(O)COc1ccccc1C(Nc1cccnc1)c1cc(Cl)c2cccnc2c1O (configuration not stated)	41*	-2%	·	·	-2
CCOc1ccc(C(=O)NC2CCCCCCC2)cc1	0.3	·	-5	·	·
CCOc1ccccc1NC(=O)C(=O)N/N=C/c1cc(Br)ccc1O	0.6	7%	-2	·	-22
O=C(Cc1ccccc1)N/N=C/c1ccc[nH]1	0.0	10%	8	·	·
CS(=O)(=O)N(CC(N)=O)c1ccc2c(c1)OCO2	-0.8	-4%	-6	-6	-5
CCOc1cccc(-c2cc(C(=O)NN)[nH]n2)c1	3.4	0%	21	·	-8
COc1cc(/C=C2/CC/C(=C/c3ccc(O)c(OC)c3)C2=O)ccc1O	1.6	-1%	58	·	·
Cc1nc(NC(=O)c2cncc(Br)c2)ccc1Br	0.8	·	-8	·	·
O=Cc1ccc(Oc2cccc(C(F)(F)F)c2)nc1	0.3	-3%	2	·	1
COc1ccc(OC)c(NC(=O)CCCNC(=O)Cn2cnc3sc(C)c(C)c3c2=O)c1	3.4	·	-2	·	·

Part of the list above in order of length of the SMILES, descending:
SMILES	RecA splice inh	Mtb growth	Mtb bLac sens	YopH PTP inh	Arbovirus inh	others
CC(C)c1ccc(N(CC(=O)NC2CCCCC2)C(=O)CCC(=O)Nc2ccccn2)cc1	-1.2	·	4	·	·
COc1cc(/C=C2/CC/C(=C/c3ccc(O)c(OC)c3)C2=O)ccc1O	1.6	-1%	58	·	·
O=C(Nc1ccccc1)O/N=C(\c1ccccc1)c1ccccn1	-1.0	5%	-4	-30	-4
